# Screening results as filed in PubChem.
# TRPML1 agonist – qHTS for Agonists of the Human Mucolipin Transient Receptor Potential 1 (TRPML1); TRPML1-expressing cells, Ca2+ dye fluorescence, FDSS; host cell line not named in the record; reference of the full effect not given here; activation, % (test concentration not listed); hit rate 0.12% among 410,000; in the data active = activation above about 50%; inconclusive = about 30% to 50%; inactive = below about 30%; further: 0% is about no effect; the text of the record puts the active cut at 80%
# Target sequence (Q9GZU1 whole entry, looked up): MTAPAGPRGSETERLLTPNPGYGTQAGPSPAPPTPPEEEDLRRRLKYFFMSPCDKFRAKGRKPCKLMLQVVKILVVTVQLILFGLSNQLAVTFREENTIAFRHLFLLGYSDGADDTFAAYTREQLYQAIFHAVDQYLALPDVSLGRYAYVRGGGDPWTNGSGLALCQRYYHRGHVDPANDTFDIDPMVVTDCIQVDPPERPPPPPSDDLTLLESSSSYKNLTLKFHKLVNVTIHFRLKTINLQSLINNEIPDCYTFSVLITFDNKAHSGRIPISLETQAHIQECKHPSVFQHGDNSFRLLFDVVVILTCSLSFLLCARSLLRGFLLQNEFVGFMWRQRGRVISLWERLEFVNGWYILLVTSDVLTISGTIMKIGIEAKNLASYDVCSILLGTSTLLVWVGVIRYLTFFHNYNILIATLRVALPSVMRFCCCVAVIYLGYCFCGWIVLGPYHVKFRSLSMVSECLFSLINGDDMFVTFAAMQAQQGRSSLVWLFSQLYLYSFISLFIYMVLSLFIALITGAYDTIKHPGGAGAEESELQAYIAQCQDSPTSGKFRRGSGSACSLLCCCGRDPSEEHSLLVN
#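 Tet-induced TRPML1-DL cells, 1,500 per well, cultured overnight, were loaded with a no-wash Ca2+ dye for 45–90 min. Calcium fluorescence was recorded on the FDSS for 110 s after compound addition, before the EC80 agonist (4 uM 54-4) was added.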
# Six1-Eya2 blk – qHTS Assay for Inhibitors of the Six1/Eya2 Interaction; hit rate 0.56% among 360,000; activity change, % (no concentration beside the values); AlphaScreen GST-Six1/His-Eya2 binding, biochemical; stronger effect = lower value; control for the full effect not named in the record; in the data active = activity change below about -65%; inconclusive = about -30% to -65%; inactive = above about -30%; further: on the % scale 0 is the no-effect control and ±100 the full control effect; compound concentration not given in the record
#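 Six1/Eya2 binding was read as AlphaScreen signal after compounds were pinned into GST-Six1 plus His-tagged Eya2 (5X stock 250/500 nM) in pH 8.0 Tris/NaCl/TCEP buffer, beads added, then incubated 1 h, 37 C, dark.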
# TRPML1 blocker – qHTS for Inhibitors of the Human Mucolipin Transient Receptor Potential 1 (TRPML1); hit rate 0.02% among 390,000; activity change, negative = inhibition, % (no concentration beside the values); TRPML1-inducible cells, Ca2+ dye fluorescence, FDSS; stronger effect = lower value; inhibition of EC80 agonist-evoked calcium signal; AID 624415, 2012; Mucolipin-1 (Homo sapiens), Q9GZU1; in the data active means activity change below about -50%; inconclusive means about -30% to -50%; inactive means above about -30%;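 further: stimulus is agonist 54-4 at its EC80 concentration; on the % scale 0 is the no-effect control and ±100 the full control effect; compound concentration not given in the record; the text of the record puts the active cut at -80%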
#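 TRPML1-DL cells, Tet-induced overnight (~16 h, 37 °C) at 1,500 cells/well, were loaded with Ca8 no-wash dye plus quencher for 45-90 min at room temperature. Compounds were pinned during FDSS kinetic reading; agonist 54-4 at EC80 (4 uM final) then added.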
# D2 ag – Beta-Arrestin HTS for Positive Allosteric Modulators of the Human D2 Dopamine Receptor: Agonists; D(2) dopamine receptor (Homo sapiens), P14416; DiscoveRx PathHunter D2 beta-arrestin, luminescence, 90 min; 100% = 57 uM dopamine signal; activation, % (no concentration beside the values); hit rate 0.084% among 360,000; AID 624465, 2012; in the data active = activation above about 40%; inconclusive = about 15% to 40%; inactive = below about 15%; further: compound concentration not given in the record; the text of the record calls up to 30% inactive
# Target sequence (P14416 whole entry, looked up): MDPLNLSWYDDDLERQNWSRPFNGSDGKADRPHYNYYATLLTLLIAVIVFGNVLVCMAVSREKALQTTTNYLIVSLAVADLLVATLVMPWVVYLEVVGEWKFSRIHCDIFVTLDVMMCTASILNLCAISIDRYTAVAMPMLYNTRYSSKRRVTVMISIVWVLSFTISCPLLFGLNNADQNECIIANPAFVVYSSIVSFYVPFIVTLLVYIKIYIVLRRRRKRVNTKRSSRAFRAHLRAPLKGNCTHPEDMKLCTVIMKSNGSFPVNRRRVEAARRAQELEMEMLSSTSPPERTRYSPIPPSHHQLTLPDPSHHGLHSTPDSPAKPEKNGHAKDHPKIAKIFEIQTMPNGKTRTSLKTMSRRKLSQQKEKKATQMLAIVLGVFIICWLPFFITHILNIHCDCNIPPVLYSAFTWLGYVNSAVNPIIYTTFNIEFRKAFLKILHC
#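 DiscoveRx PathHunter D2 beta-arrestin cells (2,100/well) attached overnight, then compound-stimulated 90 min at 37 C in HBSS/10 mM HEPES/0.1% Tween-20 buffer; beta-galactosidase complementation read by luminescence after 1 h at ambient temperature. Dopamine 57 uM final (EC100) as control.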
# D2 PAM – Beta-Arrestin HTS for Positive Allosteric Modulators of the Human D2 Dopamine Receptor: Potentiators | AID 624464, 2012 | potentiation, % (concentration not given with the values) | DiscoveRx D2 beta-arrestin cells, luminescence, 90 min; 100% = 57 uM dopamine signal | hit rate 0.23% among 360,000; active = potentiation of 50% or more; inconclusive = 30% to 50%; inactive = 30% or less;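 further: compound concentration not given in the record; tested on top of an EC20 dose of dopamine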
#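 PathHunter beta-arrestin assay in DiscoveRx D2 cells. Compounds were added with an EC20 of dopamine (50 nM final) for 90 min at 37 deg C. Luminescence was read 1 h after detection reagent, with 57 uM dopamine as the EC100 control.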
# PINK1 expr mod – A Quantitative High throughput Screen to Identify Chemical Modulators of PINK1 Expression; PINK1 immunofluorescence, high-content cytometry, 24 h; Potency, µM (titrated, usually from 76.6 µM), inactives show top-dose activation (PINK1 increase), most hits filed as activators; hit rate 0.2% among 410,000; active = well fitted activation curve with a large enough effect; inconclusive = small, poorly fitted or top-dose-only effect; inactive = flat fitted curve, though single readings scatter; cell line not stated here;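 further: potency means the concentration at half of the fitted maximal effect; % of control where 0% means no effect; nearly all actives have a fitted effect of over 65% in size; a mitochondrial uncoupler was the plate control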
#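 Decision-based qHTS: stable cells, 24 h exposure to five compound concentrations, CCCP as control. Fixed cells stained for PINK1 plus nuclear, mitochondrial and cell markers, cytometer read.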
# The depositor's hits bear a star; u = inconclusive; x = not tested or not shown; [ ] = dose if it differs, or a comment.
# The line under a structure holds: TRPML1 agonist, Six1-Eya2 blk, TRPML1 blocker, D2 ag, D2 PAM, PINK1 expr mod
- CCOC(=O)CNc1nnc(SCC(=O)OCC)[nH]c1=O
→ 0.7, 0, -11, -3.6, -19, 4.3%
- CC1(C)CC(=O)C=C(Nc2cccc(C(F)(F)F)c2)C1
→ 5.5, 11, 1, -2.8, -9, 1.3%
- CCCCN(CC)C(=O)c1ccc(Cl)c(Cl)c1
→ 1.0, 13, 14, -1.7, -1, -1.8%
- Cc1cc(C)c(S(=O)(=O)NCC(c2cccnc2)N2CCN(Cc3ccccc3)CC2)c(C)c1 (stereo unspecified)
→ 3.6, -14, -1, 4.4, -20, -0.5%
- CCOc1ccc(NC(=S)N(CCN2CCOCC2)Cc2cc3cc4c(cc3[nH]c2=O)OCCO4)cc1
→ -0.8, -24, 8, 9.4, -7, 4.8%
- O=C(Nc1ccc(Cc2ccncc2)cc1)c1ccc([N+](=O)[O-])o1
→ -0.3, 4, -2, 9.4, -4, 0.0%
- COc1ccc(N(CC(=O)NC(C)C)C(=O)CCC(=O)Nc2ccccn2)cc1
→ -0.4, 7, 14, -4.7, -1, 0.4%
- Cc1ccc(C(=O)NC(=S)Nc2cccc(-c3nc4ccccc4s3)c2)cc1
→ 0.8, 16, 24, -1.5, -2, -0.3%
- Cn1c(=O)c2[nH]c(C3CC=CCC3)nc2n(C)c1=O (stereo unspecified)
→ 1.1, 2, -7, -1.3, 15, 1.6%
- COc1c(NC=O)c2c(c([N+](=O)[O-])c1OC)C(=O)OC2
→ 0.0, -1, 13, -1.5, -4, -0.5%
- Cc1nn2c3cc(N4CCOCC4)ccc3nc2c2ccccc12
→ -0.4, u, 15, 3.2, 8, u
- O=S(=O)(c1cccc(S(=O)(=O)N2CCOCC2)c1)N1CCCCC1
→ 0.5, 5, 10, 1.1, -2, -2.3%
- COc1ccc(-c2ccc(SCC(=O)NC3CCCCC3)nn2)cc1OC
→ 1.1, u, -7, 0.3, -8, 2.6%
- CC(=O)N1CCN(c2ccc(NC(=O)c3ccc(C)c([N+](=O)[O-])c3)cc2)CC1
→ 0.1, 13, -11, 1.6, -3, 0.3%
- Cc1ccc2cc(CCNS(=O)(=O)c3ccc(F)cc3)c(=O)[nH]c2c1C
→ 0.3, 0, -1, 3.8, 2, 2.5%

# Following part
# The line under a structure holds: TRPML1 agonist, Six1-Eya2 blk, TRPML1 blocker, D2 ag, D2 PAM, PINK1 expr mod
- CCOc1ccccc1N(CC(=O)NCc1ccccc1)C(=O)CCC(=O)Nc1cc(C)ccn1
→ 0.1, 4, 1, 1.4, 4, 2.0%
- O=C(NCc1ccc2c(c1)OCO2)c1cc2ncc(Br)cn2n1
→ -0.9, u, -1, -3.1, 10, 3.7%
- C/C(=N\NS(=O)(=O)c1ccc(Cl)cc1)c1ccc(O)cc1
→ 0.5, 1, 25, -0.9, -6, x
- COc1cccc(Cn2cnc3c(NS(=O)(=O)c4cccc(Cl)c4Cl)c(C)c(C)cc32)c1
→ 0.7, -7, 7, -6.5, 16, -1.7%
- CCC(=O)N(Cc1c(C)nn(-c2ccccc2)c1Cl)c1ccc(Cl)cc1
→ 2.6, 1, 22, -8.3, -26, -1.5%
- COc1ccc(S(=O)(=O)N2CCN(C(=O)c3sccc3-c3ccccc3)CC2)cc1
→ 0.8, -3, 1, 1.8, -15, 0.7%
- COc1cccc(N(C(=O)c2snc(C(N)=O)c2N)C(C(=O)NCC2CCCO2)c2ccc(C)o2)c1 (stereo unspecified)
→ -0.5, 3, -4, 1.0, -3, 0.4%
- O=C(c1ccc(Cl)cc1)[C@@H]1[C@@H]2C(=O)N(c3ccccc3)C(=O)[C@@H]2C2c3ccccc3C=NN21 (stereo partly specified)
→ 23, -15, -6, -4.1, -7, -1.9%
- Cc1ccc(-n2nnnc2C2CCN(S(=O)(=O)c3ccc(OC(F)(F)F)cc3)CC2)cc1
→ 4.6, x, 5, x, x, 0.3%
- COc1ccc(C(=O)CC(c2ccccc2)C2CCCCC2=O)cc1 (stereo unspecified)
→ 1.1, 7, 5, -2.8, -2, x
- CCN(CC)CCNC(=O)c1ccc(NC(=O)c2cccc(S(=O)(=O)Nc3ccc(C)cc3)c2)cc1
→ 0.2, -4, 16, -0.1, -13, 7.4%
- CCOc1ccc(-c2c(=O)n(OCc3ccc([N+](=O)[O-])cc3)c3ccccc3[n+]2[O-])c(OCC)c1
→ 2.0, 2, 30, 1.9, 3, 1.3%
- COc1cccc(-c2cn3c(n2)sc2cc(C(=O)NCc4cccs4)ccc23)c1
→ 0.1, x, -10, x, x, 0.8%
- O=C(CNC1CCCC1)Nc1ccc(N2CCCCCC2)cc1
→ 4.8, u, 16, -0.3, -3, 3.8%
- Cc1ccccc1-c1nc2cc(NC(=O)c3cccc(OCCC(C)C)c3)ccc2o1
→ 1.0, x, -3, x, x, 6.0%

# The listing continues:
# The line under a structure holds: TRPML1 agonist, Six1-Eya2 blk, TRPML1 blocker, D2 ag, D2 PAM, PINK1 expr mod
- CCN(CC)c1ccc(NC(=O)c2cccnc2)cc1
→ -0.9, -6, 16, -1.5, -6, 1.5%
- COc1cc([N+](=O)[O-])ccc1NC(=O)CN1CCN(C(=O)c2ccco2)CC1
→ 1.3, 6, -8, -1.4, 4, -0.9%
- CCOC(=O)c1c(NC(=O)c2cc(-c3ccc(Br)cc3)on2)sc(C(C)=O)c1C
→ -0.5, x, -13, x, x, 1.8%
- CC(=O)N1CCc2c(sc3c2c(=O)n(-c2ccc(C)cc2)c(=O)n3Cc2c(F)cccc2Cl)C1
→ 1.5, x, 7, x, x, -0.7%
- COc1ccc(N/C(=N/c2nc(C)cc(C)n2)NC(=O)Nc2ccc(Cl)c(Cl)c2)c(OC)c1
→ 0.3, -8, 44, -2.8, -4, 0.8%
- Cn1c(SCc2cc([N+](=O)[O-])cc3c2OCOC3)nnc1-c1ccccn1
→ 0.0, 6, 0, -4.3, 0, 2.6%
- COc1ccc(-n2ccsc2=S)cc1
→ 0.1, 3, -17, -0.3, 2, x
- CN(C(=O)COc1ccc([N+](=O)[O-])cc1)C1CCS(=O)(=O)C1 (stereo unspecified)
→ 1.1, 13, 17, 4.0, 4, -1.0%
- c1ccc(C(c2ccccc2)c2noc(CN3CCC(c4ccncc4)CC3)n2)cc1
→ 1.9, -6, 23, -4.4, -12, 1.3%
- CCN1CCN(CC(=O)Nc2sc3c(c2C#N)CCC3)CC1
→ 1.3, -1, -8, -4.3, -7, -0.4%
- C[C@H](CO)N1C[C@H](C)[C@@H](CN(C)Cc2ccc3c(c2)OCO3)Oc2c(NS(=O)(=O)c3cn(C)cn3)cccc2C1=O
→ -0.1, 1, 2, -0.6, -4, 0.2%
- O=C(c1ccsc1)N1CCN(C(=O)c2cccs2)CC1
→ 0.3, -2, -18, -2.2, 0, -0.7%
- Cc1ccc(S(=O)(=O)N(Cc2ccccc2)c2ccccc2C(=O)N2CCCCC2)cc1
→ 0.3, -10, -8, -0.9, -11, 20%
- CCn1cc(C(=O)NCc2cccs2)c(=O)c2ccc(C)nc21
→ -1.1, 3, 6, -0.1, -3, 1.0%
- Cc1ccc(NC(=O)N/C=C/c2ccco2)cc1C
→ -0.5, -9, 2, 1.0, 15, -0.7%

# (listing goes on)
# Letters – A = TRPML1 agonist; B = Six1-Eya2 blk; C = TRPML1 blocker; D = D2 ag; E = D2 PAM; F = PINK1 expr mod
CCOC(=O)/C(=N/Nc1ccc(Cl)cc1)S(=O)(=O)c1ccc(Cl)cc1
  A: 1.2	B: -1	C: 86	D: 0.4	E: 3	F: x
C[C@@H]1CC=C[C@H]2[C@H]1C(=O)N(Cc1ccccc1)[C@H]2c1ccc(F)c(-c2ccc(N(C)C)cc2)c1
  A: -0.1	B: u	C: 49	D: -2.7	E: -9	F: 1.9%
CCN=c1sc(C(=O)Nc2ccccc2)c(C)n1CC
  A: 0.2	B: 10	C: 24	D: -6.4	E: -7	F: -0.5%
CC1(c2ccccc2)CC(C)(C)N2C(=O)C3(C(C#N)=C(N)Oc4cc(O)ccc43)c3cccc1c32 (stereo unspecified)
  A: 3.3	B: -15	C: 11	D: -0.4	E: 2	F: -2.9%[38.3 µM]
CCc1ccccc1NC(=O)NC1CC2CCC(C1)N2Cc1cccs1 (stereo unspecified)
  A: -0.4	B: -1	C: -6	D: -3.2	E: -26	F: x
O=C(NCc1ccc(Cl)cc1)C(=O)NCC1CCCN1S(=O)(=O)c1cccs1 (stereo unspecified)
  A: -0.3	B: -1	C: -9	D: -1.7	E: 16	F: 1.0%
CCN(Cc1ccccc1)C(=O)c1c(-c2ccccc2Cl)noc1C
  A: -0.6	B: 4	C: 4	D: 1.0	E: -3	F: 3.3%
O=C(O)c1ccccc1NC(=O)C1CCN(S(=O)(=O)c2cccc3nsnc23)CC1
  A: 1.8	B: -11	C: 7	D: 3.7	E: 1	F: -0.3%
CCOC(=O)c1cc2c(=O)n3ccccc3nc2n(CC2CCCO2)c1=NC(=O)c1cccc(C(F)(F)F)c1 (stereo unspecified)
  A: 1.3	B: x	C: 6	D: x	E: x	F: -0.3%
Cc1cccc(OC(C)C(=O)NC2CCS(=O)(=O)C2)c1C (stereo unspecified)
  A: 0.0	B: 10	C: -11	D: -0.5	E: 6	F: 1.7%
CCC(CC)C(=O)Nc1cccc(-c2cn3cccnc3n2)c1
  A: 2.4	B: x	C: -5	D: x	E: x	F: 0.6%
